Mtb growth = Confirmatory growth inhibition assay against Mycobacterium tuberculosis H37Rv, potency (AID 1949) | most inactive calls were filed without a number and no value below 0 was filed | inhibition, % at 10 µg/mL, or IC50 in µg/mL where a hit was titrated | hit rate 1.6% among 100,000;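 active = confirmed in a dose series; inconclusive = about 50% or more but not retested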;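 note: bacteria grown 7 days with compound before Alamar blue readout; 0% = untreated bacteria and 100% = reference antibiotic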
* marks the source's active call; other numbers are inactive results; i = inactive; ? = inconclusive. Only part of the results is shown. The share of hits here may be higher or lower than overall.

SMILES	Mtb growth
O=C(Cc1csc2nc3sc4c(c3c(=O)n12)CCC4)N(CCO)CCO	i
CCOCC(=O)Nc1cccc(Br)c1	42.4%
Cc1nnc(SCC(=O)Nc2ccc(Br)cc2)n1-c1ccccc1	i
COCCCNC(=O)c1cc(C)nc2ccc(F)cc12	i
O=C(CS(=O)c1ccc(S(=O)(=O)C(F)(F)F)cc1[N+](=O)[O-])Oc1ccccc1 (stereo not given)	i
Cc1cc(Br)ccc1OCC(=O)Nc1ccccc1[N+](=O)[O-]	i
CC(Oc1ccccc1)C(=O)N1CCCCCC1 (stereo not given)	i
CC(C)NC(=O)Cn1cc(C=O)c2cc(Br)ccc21	i
CCCCS(=O)(=O)Nc1ccc(Cc2ccncc2)cc1	i
CCn1c(CNC(=O)c2cccc(C)c2)nnc1SCC(=O)Nc1cccc(Cl)c1	i
COCCCNC(=S)Nc1sc2c(c1C(=O)OC)CCC(C)C2 (stereo not given)	1.4%
O=C(Nc1cccc2ncccc12)c1cc2ccccc2o1	i
CN(C)c1oc(-c2ccccc2Cl)nc1C#N	i
CC1CCN(c2nc3c(cc2C#N)COC(C)(C)C3)CC1	i
CCOC(=O)C1CCCN(S(=O)(=O)c2cccc3cccnc23)C1 (stereo not given)	i
O=C(Nc1ccc(N2CCCC2)cc1)c1ccc(-c2ccc(Cl)cc2Cl)o1	0.8%
COc1ccc(-c2c(C(F)(F)F)oc3cc(OCC(=O)Nc4ccccc4C(F)(F)F)ccc3c2=O)cc1OC	i
COCCSc1nnc(NC(=O)c2cccs2)s1	i
c1ccc(CN2CCC(N3CCOCC3)CC2)cc1	4.7%
O=C1CCN(C2CC(=O)N(c3ccccc3)C2=O)CC1 (stereo not given)	i
O=C(COC(=O)c1cc(-c2ccccc2)nc2ccc(Br)cc12)c1cccc([N+](=O)[O-])c1	i
CN(CC(=O)Nc1cccc(F)c1)S(=O)(=O)c1ccccc1	i
Cc1c(Cl)cccc1NC(=S)N1CCCC(O)C1 (stereo not given)	i
COC(=O)c1cn(-c2ccccc2)nc1-c1ccc(Br)cc1	i
CCCc1cc(=O)[nH]c(SCC(=O)Nc2ccc(C)cc2)n1	i
COC(=O)c1ccccc1NC(=O)CSCC(=O)Nc1ccccc1	i
Cc1cc(NC(=O)COc2cccc3ccccc23)no1	i
O=C(Nc1ccccc1)OCCOc1ccc(Cl)cc1	i
CC(C)OCCCNC(=S)Nc1ccc(C(C)C)cc1	i
O=C(Nc1ccc(N2CCOCC2)cc1)c1cc(F)c(F)cc1Cl	i
C=CCc1cc(OC)ccc1OCCOCCN1CCN(C)CC1	i
O=C(Cc1ccccc1)NC(=S)Nc1ccc2c3c(cccc13)CC2	i
Cc1cccc(NC(=O)C2CCN(C(=O)c3ccc(F)cc3)CC2)c1C	i
CCN(CC)C(=O)CN(Cc1ccc(F)cc1)S(=O)(=O)c1ccc(Cl)cc1	i
O=S(=O)(c1ccc(O)cc1)c1ccc(O)cc1	i
COc1cc(C)ccc1OCCOCCN(C)C	i
O=C(O)CCCCC1SCC2NC(=O)NC21 (stereo not given)	i
CCOc1ccccc1N(CC(=O)Nc1cccc(F)c1)S(C)(=O)=O	i
COc1cc(C(=O)Nc2nnc(CC(C)C)s2)c([N+](=O)[O-])cc1OC	i
CCc1ccc(N(CC(=O)Nc2ccc(OCc3ccccc3)cc2)S(C)(=O)=O)cc1	i
CCOC(=O)Nc1cccc(NC(=O)c2ccc3c4c(cccc24)CC3)c1	i
CCCCOc1cccc(C(=O)Nc2ccc(C)c(C)c2)c1	i
COc1ccc(NC(=O)c2ccco2)cc1NC(=O)C(c1ccccc1)c1ccccc1	32.8%
O=C(c1cccc(F)c1)N1CCN(C(=O)c2cccc3ccccc23)CC1	i
O=C(NC1CC1)c1ccc(COc2c(F)c(F)cc(F)c2F)o1	i
O=C(NCc1cccnc1)C1CCC(Cn2c(=S)[nH]c3ccccc3c2=O)CC1 (stereo not given)	i
O=C1CC(N2CCOCC2)C(=O)N1c1ccccc1[N+](=O)[O-] (stereo not given)	i
Fc1ccc(CNC(=S)Nc2cnn(Cc3ccc(Br)cc3)c2)cc1	i
CCOc1ccc(CC2S/C(=N\N=C\c3ccc(OC)cc3)NC2=O)cc1 (stereo not given)	i
Cc1ccc2nc(-c3ccccc3)c(NC(=O)c3ccco3)n2c1	2.0%
Cc1cccc(NC(=O)CN(Cc2ccccc2)S(=O)(=O)c2cc(Cl)ccc2Cl)c1	i
CC(C)(C)NC(=O)C(Cc1ccccc1)N1C(=O)c2ccccc2C1=O (stereo not given)	i
O=C(Cc1c(F)cccc1Cl)Nc1ccc(S(=O)(=O)Nc2nccs2)cc1	i
COc1cccc(N(CC(=O)Nc2ccc(F)cc2F)S(=O)(=O)c2ccccc2)c1	i
Cc1cc(C)cc(C(=O)Nc2cccc(F)c2)c1	39.6%
CCOC(=O)c1c(NC(=O)CCSc2nnc3ccccn23)sc2c1CCC(C)C2 (stereo not given)	2.5%
CCOc1ccc(-c2nc3n(n2)C(=O)CC(c2ccc(F)cc2)S3)cc1OCC (stereo not given)	i
CCc1ccc(OCCCC(=O)O)cc1	i
CC(=O)Nc1ccc2nc(SCC(=O)Nc3ccc(C)c(C)c3)sc2c1	i
COc1ccc(S(=O)(=O)N(C)CC(=O)Nc2cccc(C(C)=O)c2)cc1C	i

Next section
SMILES	Mtb growth
COC(=O)c1ccccc1NC(=O)Nc1ccc2ccccc2c1	i
CC(C)CNS(=O)(=O)c1ccc(CCC(=O)Nc2ccc3c(c2)OCCO3)cc1	i
Fc1ccccc1N1CCN(C(=S)Nc2ccc(Cl)c(Cl)c2)CC1	i
COc1ccc(C2(C(=O)Nc3ccc(F)cc3)CCOCC2)cc1OC	i
Cn1c(CNC(=O)c2ccc(Cl)cc2)nnc1SCC(=O)Nc1cc(C(F)(F)F)ccc1Cl	i
Cc1ccccc1OC(C)C(=O)N1CCCc2ccccc21 (stereo not given)	i
Cn1c(=O)c2c(n(C)c1=O)=NC1(CCCCC1)N=2	2.1%
O=C(c1ccc(-c2ccccc2)cc1)N1CCN(C(=O)c2cccs2)CC1	i
O=C(COc1ccc([N+](=O)[O-])cc1)N1CCc2ccccc2C1	i
CC(C(=O)Nc1ccc(OCc2ccccc2)cc1)N1C(=O)c2ccccc2C1=O (stereo not given)	i
Cc1cc(C)c(NC(=O)C2CCCCN2C)c(C)c1 (stereo not given)	1.3%
O=C(Cc1ccccc1)NCCN1CCCC1	i
COc1cc(Cl)c(C)cc1NC(=O)CCC1CCCC1	5.6%
O=[N+]([O-])c1ccccc1CN1CCC(N2CCc3ccccc3C2)CC1	3.8%
O=C(NC(=S)Nc1ccccc1C(=O)O)c1cccc(I)c1	0.8%
O=C(COC(=O)c1ccc2c(c1)OCCO2)c1ccc(Br)cc1	i
COc1cc2nc(-c3ccc4c(c3)C(=O)N(CC(C)C)C4=O)oc(=O)c2cc1OC	i
Cc1ccc(-c2cc(C(F)F)n3ncc(C(=O)N4CCN(C(=O)c5ccco5)CC4)c3n2)cc1	i
CC(=O)Nc1ccc(NC(=O)CN(c2ccc(Cl)cc2C)S(C)(=O)=O)cc1	i
COc1ccccc1NC(=O)C1=C(C)NC2=C(C(=O)CC(c3ccc(OC)c(OC)c3)C2)C1c1ccc(C)s1 (stereo not given)	21.0%
Cc1cc(=O)oc2cc(OCCSCc3ccco3)ccc12	6.8%
Nc1nnc(COc2cccc(C(F)(F)F)c2)s1	i
Cc1ccc(NC(=O)c2cc([N+](=O)[O-])ccc2NCCN2C(=O)C3CC=CCC3C2=O)cc1Cl (stereo not given)	1.9%
O=Cc1cc([N+](=O)[O-])ccc1Sc1ncccn1	1.0%
Cc1ccc(N2C(=O)CC(NC3CCCCC3)C2=O)cc1 (stereo not given)	i
COCCNS(=O)(=O)c1ccc(OC)c(C)c1C	i
COc1ccc(NC(=S)Nc2ccc(Cl)cc2C)cc1	i
Fc1cc(F)c2c(c1)C1C=CCC1C(c1ccncc1)N2 (stereo not given)	?
O=C(NC(=S)Nc1cc(C(F)(F)F)ccc1N1CCCC1)c1cccc(Cl)c1Cl	i
O=C(NCc1ccc(N2CCCC2=O)cc1)c1ccc(F)cc1	i
O=c1c2cc3c(=O)n(CCCn4ccnc4)c(=O)c3cc2c(=O)n1CCCn1ccnc1	i
CCN(CC)C(=O)c1sc(NC(=O)c2ccc(OC)cc2OC)c(C(N)=O)c1C	i
Cc1cccc(Nc2nc(-c3ccccc3)cs2)n1	22.2%
Cc1cc(=O)oc2cc(OCC(=O)Nc3nc4c(s3)CCCC4)ccc12	1.4%
O=C(Nc1ccccc1O)c1cccc(C(=O)Nc2ccccc2O)c1	i
CN(CC(=O)Nc1ccc2c(c1)OCO2)S(=O)(=O)c1cc(Cl)ccc1Cl	i
O=C(CCC(=O)Nc1ccc(F)c(F)c1)Nc1ccc(F)c(F)c1	i
O=c1[nH]c(=S)[nH]c2c1C(c1ccc([N+](=O)[O-])cc1)c1c([nH]c(=S)[nH]c1=O)O2	5.1%
CC(=O)Nc1c(C)ccc(CNC(=O)CSc2nnc(-c3ccc(C(C)(C)C)cc3)o2)c1C	i
CC(=O)NCCc1nc2cc(NC(C)=O)ccc2n1C	i
O=S(=O)(NCCc1ccccc1)c1cccc2cccnc12	1.6%
CC1(C)CC2(CCO1)OC(=O)CC2C(=O)Nc1ccccc1Cl (stereo not given)	i
O=C(NC(=S)Nc1ccc(N2CCN(C(=O)c3ccccc3)CC2)cc1)c1ccco1	?
CCOc1cc(C(=S)N2CCCC2)ccc1OCc1ccc(Cl)c(Cl)c1	7.5%
CCOC(=O)c1cnc2c(Cl)cc(Cl)cc2c1NCCN1CCOCC1	i
CS(=O)(=O)N(Cc1ccccc1Cl)c1ccc(C(=O)Nc2cccc(F)c2)cc1	i
COc1ccc(C=O)cc1Br	i
COCCSc1ccccc1C(=O)Nc1cc(C(=O)OC)cc(C(=O)OC)c1	i
O=C(COc1cc(Cl)c(Cl)cc1Cl)Nc1nccs1	i
Clc1ccc(OCCCCN2CCOCC2)cc1	i
O=C(c1cc(Cl)ccc1Cl)N1CCCN(C(=O)c2cc(Cl)ccc2Cl)CC1	0.1%
O=C(NCCCc1ccccc1)C(Cl)(Cl)Cl	i
O=C(Nc1ccc(S(=O)(=O)Nc2ncccn2)cc1)C1CCC1	i
COc1ccccc1NC(=O)C(CCSC)N1C(=O)c2cc(Cl)c(Cl)cc2C1=O (stereo not given)	i
Cc1cc(NC(=O)CSc2nnc(Cc3ccccc3)o2)no1	27.4%
O=C(Nc1cccc(C(F)(F)F)c1)c1cccs1	i
CCOc1cc(NC(=O)c2ccccc2)c(OCC)cc1NC(=O)COC	i
CNC(=S)NCCN1CCCCC1	i
O=C(CN(Cc1ccc(Br)cc1)S(=O)(=O)c1ccccc1)Nc1c(F)cccc1F	0.5%
CCOC(=O)C(C)N1C(=O)C(=O)c2ccccc21 (stereo not given)	1.7%

Two of the compounds above, with each value named:
CNC(=S)NCCN1CCCCC1
  Mtb growth: i
O=C(CN(Cc1ccc(Br)cc1)S(=O)(=O)c1ccccc1)Nc1c(F)cccc1F
  Mtb growth: 0.5%

(list continues)
SMILES	Mtb growth
Cc1ccc(C(=O)CSc2nc3ccccc3s2)cc1	4.3%
CCCC(=O)ON1C(=O)c2cccc3cccc(c23)C1=O	?
COC(=O)C1=CN(Cc2ccccc2)C=C(C(=O)OC)C1c1ccc(Cl)c(Cl)c1	4.8%
CCOC(=O)C1=C(C)N=C2SCC(=O)N2C1c1cc(Cl)c(O)c(OC)c1 (stereo not given)	i
COc1ccccc1CC(=O)Nc1ccc(Br)cc1C	i
Cc1sc(NC(=S)NC(=O)Cc2cccc3ccccc23)c(C(N)=O)c1C	6.9%
O=S(=O)(Nc1ccc(F)c(Cl)c1)c1cccs1	i
CCc1ccc(C(C)NC(=O)Cc2cccc3ccccc23)cc1 (stereo not given)	i
O=c1ccnc(SCCc2ccccc2)[nH]1	i
CC(C)n1c(/C=C/c2ccc(F)cc2)nc2ccccc21	?
COC(=O)Cc1c(C)c2cc(Cl)c(OCc3c(F)cccc3F)cc2oc1=O	i
N#Cc1ccccc1NC(=O)CSc1ccc2ccccc2c1	4.4%
C=CCNC(=O)CN(c1cccc(C)c1C)S(=O)(=O)c1ccc(C)cc1	i
Cc1ccc(CNC(=S)Nc2ccc(N(C)C)cc2)cc1	5.34µg/mL*
Nn1c(-c2ccccc2Br)n[nH]c1=S	i

Some of the entries so far, field by field:
O=S(=O)(Nc1ccc(F)c(Cl)c1)c1cccs1
  Mtb growth: i

CCc1ccc(C(C)NC(=O)Cc2cccc3ccccc23)cc1 (stereo not given)
  Mtb growth: i

O=c1ccnc(SCCc2ccccc2)[nH]1
  Mtb growth: i

CC(C)n1c(/C=C/c2ccc(F)cc2)nc2ccccc21
  Mtb growth: ?

(more compounds)
SMILES	Mtb growth
O=C(Nc1nnc(SCc2cccc(Cl)c2)s1)c1ccccc1Br	i
Cc1cc(Br)cc(C)c1OCC(=O)Nc1ccc(S(=O)(=O)N2CCCC2)cc1	15.7%
Cc1ccc(-n2c(C)nnc2SCC(=O)Nc2cc(Cl)cc(Cl)c2)cc1C	i
O=C(NCc1ccccc1)c1ccc(NC(=O)c2ccco2)cc1	i
